Source: PubChem (Johns Hopkins Ion Channel Center)
Kir21 block: inhibitors of mouse Kir2.1 inward-rectifier potassium channel; AID 1672; HEK293-Kir2.1, FluxOR thallium flux fluorescence; stronger effect = lower value; B-score at 10 µM; hit rate 0.85% among 310,000;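 active = fluorescence ratio B-score at or below minus 3 SD of library scores, with starting-brightness B-score within 2 SD, cut at about -4.2 in these data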;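 note: channel flux triggered by added potassium and thallium sulfate stimulus; B-score of peak minus minimum fluorescence over baseline after thallium stimulus; more negative B-score means stronger Kir2.1 block with less thallium influx; some compounds called inactive have numbers as strong as hits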
Target sequence (P35561 whole entry, looked up): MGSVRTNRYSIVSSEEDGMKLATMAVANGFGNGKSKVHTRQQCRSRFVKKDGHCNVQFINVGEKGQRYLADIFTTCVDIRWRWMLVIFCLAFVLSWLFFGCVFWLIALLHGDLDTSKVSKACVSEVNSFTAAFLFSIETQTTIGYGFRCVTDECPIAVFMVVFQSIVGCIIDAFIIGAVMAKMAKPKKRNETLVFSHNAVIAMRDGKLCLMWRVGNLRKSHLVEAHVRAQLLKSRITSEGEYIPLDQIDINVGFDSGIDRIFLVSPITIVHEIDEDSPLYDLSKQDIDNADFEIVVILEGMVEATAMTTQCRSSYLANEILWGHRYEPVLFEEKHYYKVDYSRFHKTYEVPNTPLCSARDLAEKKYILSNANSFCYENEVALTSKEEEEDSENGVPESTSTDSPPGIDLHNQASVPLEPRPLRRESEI
An asterisk follows results filed as active.

SMILES	Kir21 block
CCN(CC)C(=O)CP(=O)(c1ccccc1)c1ccccc1	1.04
CCOC(=O)c1nnc2c(Br)c(-c3ccccc3)nn2c1C	1.32
CCOC(=O)C1CCCN(C(=O)c2cc(-c3ccncc3)nc3ccccc23)C1 (stereo not given)	-1.14
CCC1(CC)NC(=O)N(CC(=O)OCC(=O)NC(=O)c2ccccc2)C1=O	-0.8
CC(C)/C=C/C(=O)N1CCC(N2CCC(C(=O)NCc3ccccn3)CC2)CC1	-1.14
Cc1cccc(NC(=S)NCCCN2CCOCC2)c1	-0.15
O=S(=O)(c1cccs1)N1CCN(S(=O)(=O)c2cccs2)CC1	0.4
CCn1c(CCNC(=O)c2ccc(Cl)cc2)nnc1SCC(=O)NC1CCCC1	0.71
Cc1cc(C(=O)OCC(=O)Nc2ccccc2[N+](=O)[O-])c2ccccc2n1	-0.05
O=C(c1cc(=O)c2ccccc2o1)N1CCCc2ccccc21	-0.48
COc1cccc(-c2ccc(=O)n(CC(=O)NCCN3CCOCC3)n2)c1	-0.41
Cn1ncc2c(Nc3ccc4ccccc4c3)ncnc21	0.18
CC(C)(Oc1ccc(Cl)cc1)C(=O)N1CCN(c2ccccn2)CC1	-2.53
O=C(CSc1nnc(-c2ccncc2)n1CC1CCCO1)Nc1cccc(O)c1 (stereo not given)	1.76
COc1cc(/C=C2\SC(c3ccc(C)cc3)=NC2=O)cc(OC)c1O	1.85
COCCN(C(=O)COC(=O)c1ccc2c(c1)OCCO2)c1c(N)n(Cc2ccccc2)c(=O)[nH]c1=O	-1.3
O=C(Nc1cccnc1)C1COc2ccccc2O1 (stereo not given)	-0.12
Cc1ccc(NC(=O)Cn2c3ccc(F)cc3c3nc4n(c(=O)c32)CCS4)cc1F	0.2
CC1CCN(c2nc3c(c(=O)n(C)c(=O)n3C)n2CCSc2ncccn2)CC1	1.08
COc1ccc2c(c1)C(C)CC(C)(C)N2C(=O)CSc1ncn[nH]1 (stereo not given)	-0.48
COc1ccc(/C=C/C2=CC(C)(C)NC(=S)N2)cc1	-1.2
CC(C)Cc1cc(C(=O)N2CCC(N3CCC(C(=O)NC4CC4)CC3)CC2)n[nH]1	1.13
COc1cccc(CC(=O)Nc2sc3c(c2C(N)=O)CCCC3)c1	-1.51
CCn1c(C)c(C2=CCN(S(=O)(=O)c3ccc(C)cc3)CC2)c2ccccc21	0.15
Cc1ccc(NC(=O)CC2(CC(=O)O)CCCC2)cc1	0.94
Continuation.
SMILES	Kir21 block
CC(=O)c1cccc(N(CC(=O)N2CCCC2)S(C)(=O)=O)c1	-0.89
Cc1cc(=O)oc2cc(NC(=O)c3cc4ccccc4o3)ccc12	0.3
COC(=O)CSc1n[nH]c(-c2cccnc2)n1	-0.43
CCCCc1cc(C)c(S(=O)(=O)c2ccccc2C)c(=O)[nH]1	2.19
CCS(=O)(=O)Nc1cc(C(=O)OC)ccc1C(=O)OC	1.86
CCCCC1C2C(=O)N(c3ccccc3)C(=O)C2ON1c1ccccc1 (stereo not given)	-0.19
CCCc1[nH]nc2c1C(CCC)C(C#N)=C(N)O2 (stereo not given)	-0.04
C#CCNC(=O)/C=C/c1ccc(C)cc1	1.43
Cc1cccn2c(=O)c(C(=O)NC3CCCCC3)c(O)nc12	-0.41
CCn1nnc(-c2ccccc2NC(=O)C(F)(F)F)n1	0.06
CC(=O)Nc1ccc(SCc2ncc(-c3ccccc3)o2)cc1	0.44
Cc1ccc(-n2c(=S)sc3c(=O)n(-c4ccccc4F)c(SCC(=O)O)nc32)cc1C	2.33
FC(F)(F)c1cnc(N2CCSCC2)c(Cl)c1	0.47
CN(C(=O)COC(=O)c1cc[n+]([O-])cc1)c1ccccc1	-1.4
CC1CC(C)CN(C(=O)CCC(=O)Nc2nnc(C3CCCCC3)s2)C1 (stereo not given)	1.4
C=CCc1ccccc1OCCOc1ccc([N+](=O)[O-])cc1/C=N/NC(N)=O	-1.21
CCOCC(=O)Nc1cccc(C(=O)OCC)c1	-0.02
CCOC(=O)CSc1nnc(CNc2ccc(Cl)cc2)n1-c1ccccc1	-3.83
CCc1ccc2[nH]c(=O)c(C(c3nnnn3CC3CCCO3)N3CCN4CCCC4C3)cc2c1 (stereo not given)	-1.78
CC(C)(C)NC(=O)c1ccccc1-c1nc2ccccc2s1	-0.03
Cc1ccc(-n2ncc3c(N4CCCC4)ncnc32)c(C)c1	0.07
COc1ccc(NC(=O)CN2CCN(c3nc(-c4cccc(OC)c4)cs3)CC2)cc1	-0.84
COc1ccc(CC(=O)NNC(=O)CSc2nnc(C)n2-c2ccccc2)cc1	0.78
Cc1cccc(-n2c(SCC(=O)Nc3ccc4c(c3)OCO4)nnc2-c2ccoc2C)c1	0.36
Cc1ccccc1-n1c(C)n[nH]c1=S	-1.01
Further structures.
SMILES	Kir21 block
Nc1c(N(CCC2=CCCCC2)C(=O)Cc2ccc(F)cc2)c(=O)[nH]c(=O)n1Cc1ccccc1	-0.38
CCOC(=O)Cc1c(C)c2ccc(N(CC)CC)cc2oc1=O	-1.77
CCOC(=O)c1sc(-c2ccccc2)nc1C	-1.33
CCCCCCN1C2=NCCCN2c2ccccc21	0.11
Nc1nccc(-c2ccc(-n3cccc3)cc2)n1	-0.64
COc1ccc(C(C(=O)NC2CCCC2)N(C(=O)c2ccoc2C)c2ccc(C)cc2)cc1 (stereo not given)	-0.3
CS(=O)(=O)N(CC(=O)Nc1ccccc1C(=O)N1CCOCC1)c1cccc(F)c1	-2.45
COc1ccc(NC(=O)C2CC(=O)N(Cc3ccc(C)cc3)C2)cc1S(=O)(=O)N1CCCCC1 (stereo not given)	-0.13
O=C1/C(=C/c2ccc(N3CCCC3)cc2)NC(=S)N1C1CC1	-4.49
CCOCCCNC(=O)C(c1ccc(C)cc1)N(Cc1cccs1)C(=O)CNC(C)=O (stereo not given)	2.15
COc1cc(C(=O)Oc2ccc3c(c2)OCC3=O)cc(OC)c1OC	2.03
Cc1ccc(NC(=O)CSc2nc(CSc3ccc(C)cc3)cc(=O)[nH]2)cc1	-0.51
CC(C)(C)NC(=O)c1ccc2c(c1)C(=O)N(Cc1ccco1)C2=O	-0.24
Cc1ccc(O)c(NC(=O)CSc2n[nH]c(-c3ccccc3)n2)c1	-2
Cc1ccccc1C(=O)NCC(=O)NNC(=O)CCN1CCN(c2ccccc2)CC1	0.01
CCOC(=O)c1cc(S(=O)(=O)NC2CCC(C)CC2)cn1C (stereo not given)	-0.57
CCOc1ccc(NC(=O)N2CCN(S(C)(=O)=O)CC2)cc1	-0.38
COc1ccc2c(C(=O)CN3CC(C)OC(C)C3)c[nH]c2c1 (stereo not given)	0.42
CC(C)OCCCNC(=O)NC12CC3CC(CC(C3)C1)C2	-0.12
Cc1oc(C(C)(C)C)c(CN2CCOCC2)c1C(=O)O	1.52
CCCCCC(=O)NN1C(=S)N(c2ccc(OC)cc2)C(=O)C1CC(=O)Nc1ccccc1 (stereo not given)	-0.29
COc1ccccc1NC(=S)N(CCN1CCCCCC1)Cc1cccs1	0.99
O=C1CN(C(=O)c2ccccc2C(=O)O)c2ccccc2N1	0.09
CCN1CCN(CC2COc3ccccc3O2)CC1 (stereo not given)	0.08
COc1cccc(NC(=O)CN(C)C(=O)c2c(-c3ccccc3)noc2C)c1	-0.82

Six entries from above, arranged by heavy-atom count, low to high.
SMILES	Kir21 block
C#CCNC(=O)/C=C/c1ccc(C)cc1	1.43
CCN1CCN(CC2COc3ccccc3O2)CC1 (stereo not given)	0.08
Cc1ccc(NC(=O)CC2(CC(=O)O)CCCC2)cc1	0.94
CCC1(CC)NC(=O)N(CC(=O)OCC(=O)NC(=O)c2ccccc2)C1=O	-0.8
CCn1c(CCNC(=O)c2ccc(Cl)cc2)nnc1SCC(=O)NC1CCCC1	0.71
COc1ccc(C(C(=O)NC2CCCC2)N(C(=O)c2ccoc2C)c2ccc(C)cc2)cc1 (stereo not given)	-0.3

(list continues)
SMILES	Kir21 block
Cc1ccc(/C=C2\SC(=S)N(CCCC(=O)Nc3ccc(O)cc3)C2=O)cc1	-0.39
CCCCn1c(N)c(N(CCOC)C(=O)c2cc(CC)c(C)s2)c(=O)[nH]c1=O	-0.03
CCC(=O)c1cc2c(cc1NC(=O)c1cccs1)OCCO2	0.09
COCCOC(=O)c1[nH]c2c(c1C)C(=O)CC(c1ccc(F)cc1)C2 (stereo not given)	1.05
O=C1c2ccccc2C(=O)N1c1ccc(Cl)cn1	0.32
O=C(N/N=C/c1cccnc1)c1cccc(S(=O)(=O)Nc2cccc(Cl)c2)c1	0.31
O=C(NNC(=O)c1ccc(NC(=O)c2ccccc2)cc1)c1ccc(F)cc1	0.9
O=C(Nc1ccc(S(=O)(=O)N2CCOCC2)cc1)c1cccc([N+](=O)[O-])c1	-0.09
O=c1[nH]cc(COCc2ccccc2)c(=O)[nH]1	-0.71
CC1CC1C(=O)NCCc1ccc(Cl)cc1 (stereo not given)	-0.01
COC(=O)c1ccc(N2C(=O)c3cc(N4CCOCC4)c([N+](=O)[O-])cc3C2=O)cc1	1.79
CCN(CC)c1ccc(C(=O)OCC(=O)NCC2CCCO2)cc1 (stereo not given)	-0.78
COc1ccc(NC(=O)C2c3cc(OC)c(OC)cc3C(=O)N(C)C2c2cccnc2)cc1OC (stereo not given)	-0.35
COc1cccc(CNc2nc3nc4c(c(=O)n3[nH]2)CCC4)c1	0.41
Cc1[nH]n(C)c(=O)c1[N+](=O)[O-]	-0.86
O=C(NCCC1CCCCN1S(=O)(=O)c1ccc(F)cc1)C(=O)NC1CCCC1 (stereo not given)	-0.56
COC(=O)c1c(NC(=O)CN2CCN(C(=O)c3ccco3)CC2)c2c(C)cccc2n1C	0.87
COc1ccc2nc(SCC(=O)Nc3ccc4c(c3)OCCO4)[nH]c2c1	0.59
Cc1ccc(S(=O)(=O)NN2C(=O)/C(=C/c3cccs3)SC2=S)cc1	0.48
COC(=O)c1[nH]c2ccccc2c1NC(=O)C(C)N1CCOCC1 (stereo not given)	-0.11
CN(C)c1ccc(/C=N/NC(N)=S)cc1[N+](=O)[O-]	-1.19
COc1ccc(OC)c(-c2nnc(SCC(=O)N3CCOCC3)o2)c1	0.29
COC(=O)c1cc(-c2cccs2)nn1-c1ccccc1	1.07
O=S(=O)(c1ccc(Cl)cc1)N1CCCCCC1	1.37
COc1ccc(C(=O)N2CCN(c3ccc(C)c(C)c3)CC2)cc1OC	1.47
Further compounds follow.
SMILES	Kir21 block
CC(=O)c1c(C)[nH]c(C(=O)OCC(=O)NCCc2ccc(Cl)cc2)c1C	-0.28
COc1ccc(C(=O)N2CCCC(N3CCN(c4ccccc4F)CC3)C2)c(OC)n1 (stereo not given)	0.75
CCOC(=O)c1sc2nc3c(cc2c1N)COC(C(C)C)C3 (stereo not given)	-0.29
Cc1ccc(CCN2CC(C(=O)NCCN(C)C)CC2=O)cc1 (stereo not given)	1.13
COc1c(Cl)cccc1-c1cn2ccccc2n1	-0.64
O=C(CSc1nnc2n1CCCN2)c1ccccc1	1.99
O=C1Nc2ccccc2N=C(c2ccccc2)C1Br (stereo not given)	-0.55
O=c1cc(CSc2nnc(COc3ccc(Cl)cc3)o2)c2ccccc2[nH]1	0.18
COc1cccc(CNC(=O)c2ccc(N3CCOCC3)c([N+](=O)[O-])c2)c1	-1.11
O=C1OCCC1N1C(=O)c2ccccc2S1(=O)=O (stereo not given)	-0.78
COc1ccc(-n2c(SCC(=O)N3CCOCC3)nc(O)c(Cc3ccccc3)c2=O)cc1	-0.01
Cc1ccc(NC(=O)CCC(=O)NNC(=O)c2ccco2)cc1C	-0.13
CCOc1cc(NC(=S)NCc2ccco2)c(OCC)cc1NC(=O)C1CC1	1.6
Cc1nn(C)c(C(=O)N/N=C/c2ccc(Br)cc2)c1Cl	-1.39
COc1cc(C2SCC(=O)N2Cc2ccccc2)ccc1O (stereo not given)	0.82
CCOC(=O)c1c(C)[nH]c(C)c1C(=O)CSc1nnc(-c2ccncc2)n1Cc1ccccc1	-2.65
CCc1ccc(NC(=O)C2CCN(S(=O)(=O)c3ccc4c(c3)NC(=O)C(C)S4)CC2)cc1 (stereo not given)	1.53
CCN(CC)C(=O)Cc1cn(C)c2ccccc12	0.65
CC1CC(C)CN(c2ncnc3c2cnn3C)C1 (stereo not given)	0.14
O=C(COC(=O)c1ccc(Cl)nc1)NCCC1=CCCCC1	0.34
Nc1nc(Cl)nc2ncn(Cc3ccccc3)c12	-0.21
Nc1nc2nccc(-c3cccnc3)n2n1	1.01
CCN1C(=O)/C(=C2/C=CC=CN2C)SC1=S	2.41
CCN(CC)S(=O)(=O)c1ccc(NC(=O)C(C)N(c2ccc(OC)cc2)S(C)(=O)=O)cc1 (stereo not given)	-0.1
COc1ccc(CC(=O)NCc2nnc(SCC(=O)Nc3ccc(OC)cc3)n2C)cc1	-0.15

Reformatted with each value named: entries from further up.
O=S(=O)(c1cccs1)N1CCN(S(=O)(=O)c2cccs2)CC1
  Kir21 block: 0.4

CCn1c(CCNC(=O)c2ccc(Cl)cc2)nnc1SCC(=O)NC1CCCC1
  Kir21 block: 0.71

By substructure, those above containing a CF3 group
SMILES	Kir21 block
CCn1nnc(-c2ccccc2NC(=O)C(F)(F)F)n1	0.06
FC(F)(F)c1cnc(N2CCSCC2)c(Cl)c1	0.47

(further entries)
SMILES	Kir21 block
O=C(NC(CO)Cc1ccccc1)c1ccccc1 (stereo not given)	-0.01
CCn1c(SCC(=O)NCC2CCCO2)nc2c(c1=O)SCC2 (stereo not given)	1.16
COc1cc(CC(=O)OCC(=O)c2ccc3c(c2)OCCO3)cc(OC)c1OC	-0.11
C(=N\Nc1ccc(-n2ccnc2)nn1)/c1ccccc1	0.98
CCOc1ccc(N(C)S(=O)(=O)c2ccc3[nH]cc(C(=O)NCCOC)c(=O)c3c2)cc1	0.02
N#Cc1nc(COc2cccc(Cl)c2)oc1N1CCCC1	-0.13
COc1ccc(C/C(N)=N/OC(=O)c2ccc(Cl)cc2)cc1	-0.02
FC(F)Oc1ccc(NC(=S)Nc2ccc3cn[nH]c3c2)cc1	0.9
CCOC(=O)CSc1nc2sc3c(c2c(=O)n1-c1ccc(OC)cc1)CCN(C)C3	0.32
Clc1nc(CN2CCCCC2)nc2sc3c(c12)CCC3	-1.24
CCc1c(C)nc(N)n2c(SCC(=O)N3CCCc4ccccc43)nnc12	-1
CCCCn1c(N)c(NCc2ccccc2OC)c(=O)[nH]c1=O	-1.12
COc1cccc(NC(C)=[N+](C)CCNS(=O)(=O)c2ccc(Cl)cc2)c1	-2.12

Only part of the results is shown; most or all hits stand in other tables.
